Compound activity (PubChem)
TRPML1 inh = qHTS for Inhibitors of the Human Mucolipin Transient Receptor Potential 1 (TRPML1); AID 624415, 2012; Mucolipin-1 (Homo sapiens), Q9GZU1; activity change, negative = inhibition, % (test concentration not listed); TRPML1-inducible cells, Ca2+ dye fluorescence, FDSS; hits give low values; inhibition of EC80 agonist-evoked calcium signal; hit rate 0.02% among 390,000; in the data active means activity change below about -50%; inconclusive means about -30% to -50%; inactive means above about -30%;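 also: stimulus is agonist 54-4 at its EC80 concentration; % is scaled to controls: 0 for no effect and ±100 for the full control effect; compound concentration not given in the record; the text of the record puts the active cut at -80%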
Target sequence (Q9GZU1 whole entry, looked up): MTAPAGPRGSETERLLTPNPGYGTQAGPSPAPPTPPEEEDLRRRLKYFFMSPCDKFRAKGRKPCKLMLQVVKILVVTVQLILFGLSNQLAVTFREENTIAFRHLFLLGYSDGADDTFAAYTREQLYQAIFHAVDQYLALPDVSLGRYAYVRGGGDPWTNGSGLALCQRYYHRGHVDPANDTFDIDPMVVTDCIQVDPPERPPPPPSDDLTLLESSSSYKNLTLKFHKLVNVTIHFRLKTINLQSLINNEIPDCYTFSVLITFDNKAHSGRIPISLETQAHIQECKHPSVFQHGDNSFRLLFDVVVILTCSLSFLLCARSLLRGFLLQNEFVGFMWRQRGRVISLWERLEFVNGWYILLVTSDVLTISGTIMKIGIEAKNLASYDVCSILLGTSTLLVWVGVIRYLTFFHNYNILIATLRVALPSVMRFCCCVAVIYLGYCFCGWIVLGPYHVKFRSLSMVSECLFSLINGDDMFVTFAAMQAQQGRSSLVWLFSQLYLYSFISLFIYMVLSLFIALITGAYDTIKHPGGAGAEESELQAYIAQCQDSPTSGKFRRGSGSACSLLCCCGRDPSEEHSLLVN
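Calcium fluorescence in TRPML1-DL cells induced overnight with Tet: a 110 s read after compound pin addition, then a 110 s antagonist read after challenge with 54-4 at 4 uM final (EC80).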
Menin-MLL FL inh = qHTS Assay for Inhibitors Targeting the Menin-MLL Interaction in MLL Related Leukemias: Competition With Fluorescein Labeled MLL-derived Peptide | Fluorescence polarization, fluorescein-MLL peptide displacement from menin | FP activity change, % at 61.4 µM | 290,000 tested, under 10 active | AID 1766, 2009; inconclusive = falling polarisation curve, or a change in total fluorescence; inactive = total fluorescence flat and polarisation flat or rising; no compound was filed as active; the % refers to the polarisation; negative = inhibition;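 also: % of control where 0% means no effect; inhibitors lower the polarisation; unlabelled MLL peptide was the positive control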
gsp antag = qHTS for Antagonists of gsp, the Etiologic Mutation Responsible for Fibrous Dysplasia/McCune-Albright Syndrome: qHTS; Potency, µM (titrated, usually from 76.9 µM), inactives show top-dose activity change, negative = inhibition, usual class: inhibitors; hit rate 0.4% among 340,000; gsp-mutant cells, cAMP HTRF, 30 min; control for the full effect not named in the record; active = falling curve of any shape with a large fitted effect; inconclusive = falling curve, mostly with a smaller effect; inactive = flat or rising curve; cell line not stated here;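 also: intracellular cAMP measured with PDE inhibitor Ro 20-1724 present during compound exposure; potency is read from the fitted curve at half-maximal effect; % is scaled to controls: 0 for no effect and ±100 for the full control effect; nearly all actives have a fitted effect of over 65% in size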
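G418-selected cells were plated in DMEM/10% FBS for 16-24 h at 37C, then treated with compounds plus the PDE inhibitor […] (300 uM solution added) for 30 min at 37C. Intracellular cAMP was measured by HTRF after 30 min lysis at room temperature.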
gsp ag = qHTS for Agonist of gsp, the Etiologic Mutation Responsible for Fibrous Dysplasia/McCune-Albright Syndrome: qHTS; gsp mutant cells, cAMP HTRF, 30 min; control for the full effect not named in the record; Potency, µM (highest dose often 76.9 µM), inactives show at the top dose activation (cAMP increase), actives largely listed as activators; hit rate 0.13% among 340,000; AID 624287, 2012; active = well fitted activation curve with a large enough effect; inconclusive = small, poorly fitted or top-dose-only effect, or another doubt; inactive = no such curve, though single readings can be large or run the other way; cell line not stated here;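 also: phosphodiesterase inhibitor Ro 20-1724 added with compounds to block cAMP breakdown; potency is read from the fitted curve at half-maximal effect; nearly all actives have a fitted effect of over 60% in size; about a fifth of the inactives were tested at one dose only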
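Cells stably selected in G418 were plated at 2000/well, grown 16-24 hr, then given compounds in DMSO with the PDE inhibitor […] (300 uM solution added) for 30 min at 37C; cAMP was read by HTRF.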
Sfp inh = qHTS Assay for Inhibitors of Bacillus subtilis Sfp phosphopantetheinyl transferase (PPTase); 4'-phosphopantetheinyl transferase ffp (Bacillus subtilis), Q9F4F7; Biochemical Sfp PPTase activity, qHTS; Potency, µM, inactives show max response, negative = inhibition, actives largely listed as inhibitors; hit rate 3.5% among 310,000; AID 1490, 2009; active = well fitted inhibition curve with a large enough effect; inconclusive = small, poorly fitted or top-dose-only effect, or another doubt; inactive = no such curve, though single readings can be large or run the other way;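 also: the enzyme is Sfp with the accession as filed and its product quenches rhodamine fluorescence; potency is read from the fitted curve at half-maximal effect; 0% = enzyme reaction without inhibitor and -100% = no enzyme wells; top concentration of the series not given in the record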
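With Hepes-Na pH 7.6 buffer containing 10 mM MgCl2, Sfp (15 nM) modified BHQ-2-YbbR (12.5 uM) using rhodamine-CoA (5 uM). Two reads 30 minutes apart at 525/598 nm yielded each well's rate.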
TRPV1 PAM = HTS Assay for Compounds that Act as Potentiators of the Vanilloid Receptor 1 | AID 540277, 2011 | Transient receptor potential cation channel subfamily V member 1 (Homo sapiens), Q8NER1 | hit rate 0.02% among 320,000 | potentiation, % at 8.33 µM | TRPV1-expressing cells, Fluo-8 calcium influx, capsaicin EC20 potentiation; host cell line not named in the record; control for the full effect not named in the record; active means potentiation above 80%; inconclusive means 30% to 80%; inactive means below 30%; also: 0% is about no effect
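TRPV1-expressing cells were cultured overnight at 35.5C and loaded with Fluo-8 calcium dye for 40 to 90 min at room temperature. After a 10 s baseline, compound was added and calcium influx was read kinetically for 3 min (ex 480/em 520 nm).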
ClpP mod = qHTS Assay for Activators of ClpP; ATP-dependent Clp protease proteolytic subunit (Bacillus subtilis (strain 168)), P80244; purified B. subtilis ClpP, FRET peptide cleavage, 20 min; Potency, µM (titrated, usually from 57.5 µM), inactives show top-dose activity change, negative = active; hit rate 1.9% among 340,000; active = well fitted falling curve with a large enough effect; inconclusive = small, poorly fitted or top-dose-only effect; inactive = no such curve, though single readings can be large or run the other way; also: potency is read from the fitted curve at half-maximal effect; the source files actives as falling curves though it sought activators and does not explain the sign; nearly all actives have a fitted effect of over 65% in size; many hits overshoot -100%
Target sequence (P80244 whole entry, looked up): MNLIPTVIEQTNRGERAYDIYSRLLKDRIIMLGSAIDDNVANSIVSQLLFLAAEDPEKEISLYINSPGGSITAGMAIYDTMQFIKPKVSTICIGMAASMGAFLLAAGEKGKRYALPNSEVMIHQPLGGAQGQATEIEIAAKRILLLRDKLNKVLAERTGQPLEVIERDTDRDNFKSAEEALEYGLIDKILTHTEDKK
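Purified B. subtilis ClpP, 10 microg/mL final in Tris/HCl pH8 with KCl, BSA, glycerol and Tween-20, cleaved an Abz/nitrotyrosine-quenched decapeptide. Fluorescence (ex 320, em 430) was read at 0 and 20 min at room temperature. Delta was normalized to 5.8 microM ADEP and DMSO/no-enzyme controls.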
An asterisk follows results filed as active; u = inconclusive; x = not tested or not shown; & = joins results of further samples; [ ] = remark or other dose.

The line under a structure holds: TRPML1 inh	Menin-MLL FL inh	gsp antag	gsp ag	Sfp inh	TRPV1 PAM	ClpP mod
NNC(=O)COc1ccc(C(F)(F)F)cc1
    16	0.1	-18%	-33%[inhibitor]	-9%	-14	1.2%
O=C(CCN1N=C(c2ccccc2)CCC1=O)NCC1CCCO1 (stereo not given)
    -4	x	-8%	2%	3%	5	-0.4%
CN(Cc1ccccc1)c1ncnc2c1cnn2-c1ccccc1
    69	-1.6	-8%	-26%	-18%	6	-4.8%
CCN1CCN(c2ccc([N+](=O)[O-])c(Sc3nc4ccccc4[nH]3)c2)CC1
    -13	4.5	-9%	17%[15.4 µM]	0%	4	-1.4%
Cc1ccc(S(=O)(=O)NCCC(=O)N2CCN(c3ccccc3)CC2)cc1C
    -14	x	-10%	x	x	x	-4.8%
O=C(NNc1ccccc1)c1ccc(Cl)c(Cl)c1
    6	x	3%	-1%	x	x	-2.9%
Cc1ccnc(SCC(=O)Nc2c(C)n(C)n(-c3ccccc3)c2=O)n1
    3	-0.7	7%	-23%	9%	3	-2.2%
CC(=O)c1ccc(NC(=O)CCn2c(=O)oc3ccccc32)cc1
    14	2.8	5%	11%	-7%	8	-0.5%
COc1ccc2nc(SCC(=O)C(C)(C)C)[nH]c2c1
    10	1.1	4%	2%	40µM*	-2	-1.9%
COc1cc(CCN2C(=O)N[C@@H](c3cccc(C(F)(F)F)c3)C(C(C)=O)=C2C)cc(OC)c1OC
    x	-8.6&-2.5	x	x	1%&-4%	-5	x
COc1ccccc1N1CCN(C(=O)CNS(=O)(=O)c2ccc(Br)s2)CC1
    14&-8	-0.5	-11%	20%[15.4 µM]	-3%	1	2.0%&-2.5%
CCCc1cc(=O)[nH]c(SCC(=O)NCCCC(=O)OCC)n1
    -3	3.0	9%	10%	12%	-7	-8.5%
CC(Cc1ccsc1)NC(=O)CCc1nnc(COc2ccccc2)o1 (stereo not given)
    0	-0.7	2%	9%	-6%	-7	x
CCN1/C(=C/c2ccc3cc(C)ccc3[n+]2C)Sc2ccc3sccc3c21
    -16	u	u	-8%	-21%	19	-0.8%
O=C(CN1CCN(C2CCCCC2)CC1)Nc1ccccc1-c1ccccc1
    7	0.5	-1%	-17%	u	-11	-1.1%
COc1ccc(-c2cc(C(=O)OCC(=O)c3c(N)n(C)c(=O)n(C)c3=O)c3ccccc3n2)cc1
    4	2.4	-5%	21%	10%	7	x
COc1ccc(CNC(=O)c2cccc(S(=O)(=O)N3CCN(C)CC3)c2)cc1
    -10	-2.2	-1%	-7%[15.4 µM]	12%	5	x
CC(C)(C)c1ccc(-c2c(C(=O)O)c(C(=O)O)c3n2CSC3)cc1
    24	7.8	-11%	6%	-5%	5	-21%
COC(=O)C1=C(C)NC(=S)N(C(C)=O)C1c1ccc(OC)c(OC)c1 (stereo not given)
    15	0.8	4%	-9%[15.4 µM]	9%	11	x
Cc1ccc(-c2nc(S(=O)(=O)c3ccc(C)cc3)c(N(C)C)o2)cc1
    7	0.2	-3%	-7%[15.4 µM]	u	4	-1.8%
COc1ccc2oc(C)c(C(=O)NN)c2c1
    -15	4.9	2%	-59%	-18%	-1	-2.4%
NC(=O)c1ccsc1NC(=O)COC(=O)C1=NNC(=O)CC1
    -7	x	4%	10%	x	-20	-0.2%
CC(C)N1CCc2c(sc(NC(=O)Cc3ccccc3)c2C(N)=O)C1
    -1	0.7	3%	28%	1%	22	-0.7%
COc1ccc(CNC(=O)NCc2ccc(OC)c(OC)c2)cc1OC
    -1	4.2	2%	u	17%	-10	-0.3%
COCOCCn1cc(CN2CCS(=O)(=O)N(Cc3ccc(-c4ccc(OC)cc4)cc3)C(C(C)C)C2=O)nn1 (stereo not given)
    4	x	x	u	x	x	-0.2%
CN(c1ccc(C(=O)Nc2cccc(O)c2)cc1)S(=O)(=O)c1ccccc1
    -4	1.9	-10%	u	-1%	-8	-16%
C=CCSc1nc2sc(C)c(C)c2c(=O)n1CC=C
    34	-0.5	1%	-9%	50µM*	-3	5.5%
Cc1csc(SCC(=O)N(C)C2CCS(=O)(=O)C2)n1 (stereo not given)
    -5	x	7%	-16%[15.4 µM]	x	-7	x
CN(c1cccc(NC(=O)COc2ccccc2)c1)S(C)(=O)=O
    9	0.0	4%	-87%[inhibitor]	-6%	u	-5.1%
O=C(Cc1ccc(-n2c(=S)[nH]c3ccccc3c2=O)cc1)N1CCC(N2CCCCC2)CC1
    4	4.8	-1%	1%	-11%	8	5.0%
CN(C(=O)COC(=O)COc1ccc2ccccc2c1)c1c(N)n(Cc2ccccc2)c(=O)[nH]c1=O
    11	x	9%	-33%[inhibitor]	x	4	-1.5%
C#CCOc1ccc(OC)cc1C(c1c(C)[nH][nH]c1=O)c1c(C)[nH][nH]c1=O
    15	-0.8	-7%	-30%	-3%	-17	x
CC1=C2C3OC(=O)C(C)C3CCC2(C)C=C(Br)C1=O (stereo not given)
    3	x	x	0%	x	x	1.2%
CCCn1nnnc1NCc1c(Cl)cccc1Cl
    25	-2.3	15%	-21%	13%	-10	-1.6%
CSc1nnc(C(C)(C)C)c(=O)n1/N=C/c1ccccc1
    49	1.0	-6%	3%[15.4 µM]	6%	-1	x
O=c1oc2ccccc2c(Nc2ccccc2)c1CN1CCCCC1
    18	0.4	0%	13%[15.4 µM]	4%	-3	x
COc1ccc(OCC(O)CN2CCN(c3ccc(OC)cc3)CC2)cc1 (stereo not given)
    u	-28	10%	u	-13%	9	-5.8%
COc1ccc(S(=O)(=O)n2ccc(-c3ccc(OCCN(C)c4ccccn4)cc3)n2)cc1
    10	9.8	-10%	8%	13%	26	-0.3%
Cc1ccc2nc(CSc3nnc(Nc4ccccc4F)s3)cc(=O)n2c1
    -15	7.1	9%	-11%[15.4 µM]	17%	15	0.5%
COC(=O)CN1C(=O)C2(OCCCO2)c2cc(Br)ccc21
    -24	0.8	-3%	u	9%	-7	1.0%
CC(C)CN(C(=O)COC(=O)c1cc2c(s1)CCC2)C1CCS(=O)(=O)C1 (stereo not given)
    31	1.3	1%	-15%	1%	-3	-22%
O=C(N/N=C/c1cccnc1)c1ccc2ccccc2c1O
    7	x	-10%	-4%	-7%	-14	6.7%
Cc1ccc2c(CC(=O)NC3CCCc4ccccc43)coc2c1 (stereo not given)
    -15	0.0	-13%	-8%	14%	-2	-4.0%
CNc1nc(N)c([N+](=O)[O-])c(Nc2cccc(F)c2)n1
    -4	3.3	21%	3%[15.4 µM]	12%	5	x
CCOC(=O)C1(CCOc2ccccc2)CCN(Cc2ccc(O)cc2)CC1
    29	3.0	-11%	-12%	8%	-5	3.1%

Part of the list above in order of count of non-hydrogen atoms, descending:
The line under a structure holds: TRPML1 inh	Menin-MLL FL inh	gsp antag	gsp ag	Sfp inh	TRPV1 PAM	ClpP mod
COC(=O)CN1C(=O)C2(OCCCO2)c2cc(Br)ccc21
    -24	0.8	-3%	u	9%	-7	1.0%
CNc1nc(N)c([N+](=O)[O-])c(Nc2cccc(F)c2)n1
    -4	3.3	21%	3%[15.4 µM]	12%	5	x
CC1=C2C3OC(=O)C(C)C3CCC2(C)C=C(Br)C1=O (stereo not given)
    3	x	x	0%	x	x	1.2%

Remaining list, next part.
The line under a structure holds: TRPML1 inh	Menin-MLL FL inh	gsp antag	gsp ag	Sfp inh	TRPV1 PAM	ClpP mod
COc1ccc(OCC(O)CN2CCNCC2)cc1 (stereo not given)
    22	0.0	2%	8%[15.4 µM]	6%	-1	1.7%
COC(=O)NC1c2ccccc2Oc2ccccc21
    -10	-1.2	-5%	-4%[15.4 µM]	7%	9	0.6%
CCCCCOc1ccc(NC(=O)CSc2cccc3cccnc23)cc1
    16	2.2	-4%	15%[15.4 µM]	-20%	-27	x
Cc1noc(NS(=O)(=O)c2ccc(N/C=C\C(=O)c3cccs3)cc2)c1C
    16	3.4	-9%	u	0%	9	-3.7%
c1ccc(Nc2ccccc2Nc2ccccn2)nc1
    -1	-1.2	-3%	10%	5%	-2	-0.7%
C/C(=N\NC(=S)NC1CCCCC1)c1ccc(O)cc1
    7	-1.6	-8%	6%[15.4 µM]	79µM*	-3	x
Cc1cccc(NC(=O)CN2CCN(CC(=O)NCc3ccc(Cl)cc3Cl)CC2)c1C
    10	x	11%	7%	x	2	3.3%
NC(=O)c1ccsc1NC(=O)COC(=O)Cc1ccsc1
    -5	2.8	-12%	0%	-2%	0	-1.8%
CCOc1ccc(N2C(=O)CC(N(CCc3ccc(OC)cc3)C(=O)/C=C/C(=O)O)C2=O)cc1 (stereo not given)
    34	-0.4	6%	11%	12%	7	x
Cn1c(=S)[nH]c2sc3c(c2c1=O)CCC(C(C)(C)C)C3 (stereo not given)
    x	-2.1	x	x	19%	4	x
CCOc1ccc(OCCn2c(=S)[nH]c3ccccc32)cc1
    x	-0.5	-3%	-62%[inhibitor]	-83%	22	-5.2%
